Source: PubChem BioAssay (several laboratories)
Calb FLC: C. albicans growth modulation with fluconazole | C. albicans CaCi-2 (fluconazole-resistant clinical isolate) + fluconazole, Alamar Blue growth, 48 h | growth inhibition, % (test concentration not listed) | actives 0.57% (n = 300,000);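 active = most replicates above 75%; inconclusive = exactly half above 75%; inactive = most below 75%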;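 also: all wells also contain fluconazole at 8 µg/ml as a sub-toxic cotreatment; 0% = median of DMSO wells and 100% = median of geldanamycin control wells; wells of about 8 µL received 7.5 nL stock; the first replicate is given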
Beta cell apopt: beta cell apoptosis inhibition | INS-1E cytokine-induced death, ATP luminescence, 48 h; percent of positive-control rescue, neutral wells zero | protection from apoptosis, % (test concentration not listed) | actives 0.8% (n = 300,000) | AID 435005;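 active = all replicates at 75% or more, or half of them and the mean; inconclusive = half reach 75% but not the mean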;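 also: 0% = cytokine-treated negative control wells and 100% = positive control rescue; higher means more ATP so stronger rescue from cytokine killing; wells of about 40 µL received 100 nL stock; the first replicate is given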
RanGTP-Impb inh: disruptors of Ran-importin-beta complex formation – biochemical, FRET, CFP-Ran, YFP-importin-beta, homogeneous, primary screen | inhibition, % (no concentration beside the values) | actives 1.1% (n = 300,000) | cell-free CFP-Ran/YFP-importin-beta FRET ratio;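 active = most replicates above 15%; inconclusive = exactly half above 15%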;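 also: 0% = DMSO wells and 100% = Ran loaded with GDP instead of GTP; wells of about 40 µL received 100 nL stock; the first replicate is given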
AF4-AF9 inh: MLL-AF4/AF9 protein interaction inhibition; P42568; actives 0.47% (n = 350,000); inhibition, % at 10 µM; AlphaScreen, biotin-AF4 peptide binding to FLAG-AF9; AID 651704;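 active = every replicate reaching a set inhibition limit, whatever the replicate mean, cut at about 25% in these data; inconclusive = mean inhibition reaches that limit but some replicates miss it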;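 also: 0% = plate neutral control median and 100% = total signal loss; the record names both 10 and 1 µM as test concentration; the first replicate is given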
Target sequence (P42568 whole entry, looked up): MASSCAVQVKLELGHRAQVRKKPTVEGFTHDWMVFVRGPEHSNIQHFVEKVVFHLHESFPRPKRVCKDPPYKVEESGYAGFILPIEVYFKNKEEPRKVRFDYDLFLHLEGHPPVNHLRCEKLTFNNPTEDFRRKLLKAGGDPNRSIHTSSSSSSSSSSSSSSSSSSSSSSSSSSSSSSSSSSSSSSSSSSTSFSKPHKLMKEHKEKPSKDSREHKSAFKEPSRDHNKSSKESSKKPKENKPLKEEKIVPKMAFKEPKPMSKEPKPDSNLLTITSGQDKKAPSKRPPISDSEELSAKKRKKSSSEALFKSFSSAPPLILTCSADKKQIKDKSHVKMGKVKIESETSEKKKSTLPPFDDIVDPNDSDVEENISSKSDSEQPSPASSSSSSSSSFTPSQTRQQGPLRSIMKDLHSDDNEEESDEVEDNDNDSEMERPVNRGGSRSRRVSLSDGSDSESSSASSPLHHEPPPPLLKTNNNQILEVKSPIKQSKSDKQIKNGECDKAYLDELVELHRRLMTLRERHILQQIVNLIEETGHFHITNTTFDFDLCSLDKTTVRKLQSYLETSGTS
T cruzi repl: T. cruzi replication inhibition; AID 1885; inhibition, % (concentration not given with the values); T. cruzi beta-gal in NIH3T3, luminescence, 90 h; actives 1.4% (n = 300,000);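 active = mean inhibition across valid replicates above about 55%, limit read from the data; inconclusive = mean below that limit but half or more replicates reach it; inactive = mean below it, under half of replicates reach it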;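 also: signal also drops with host cell toxicity which is not excluded here; 0% = plate median of DMSO wells and 100% = zero luminescence signal; higher percent means less beta-gal luminescence so fewer parasites; stock transfer was 50 nL into about 50 µL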
rRNA inh HTS: selective bacterial rRNA inhibition in E. coli. E. coli WT GFP vs humanized-ribosome RFP mutants, fluorescence, 24 h; hits give low values; DMSO median 0, no signal -100. AID 720706. actives 1.6% (n = 350,000). GFP signal change (wild-type ribosome), % (no concentration beside the values);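 active = significant combined selectivity score with lowered wild-type GFP, culture density cut under 30%, mutant RFP and density less affected; inactive = any of these conditions unmet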; also: one replicate is shown; some compounds called inactive have numbers as strong as hits
Vif A3G: inhibitors of Vif binding to APOBEC3G peptide, primary screen, biochemical, TR-FRET, GST-Vif 1-94, biotin-A3G peptide, dose response retest (AID 1117319); TR-FRET GST-Vif / biotin-A3G peptide binding; higher % means a stronger effect; test concentration not given here; strong numbers were not always called active; inhibition, %; hits with a dose series show IC50 in µM; actives 0.57% (n = 260,000);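 active = above the screen mean plus three standard deviations and confirmed in dose response; inconclusive = results disagree or hit not tested in dose response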;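 also: Vif residues 1-94 fused to GST binding biotinylated APOBEC3G peptide 110-148; 0% = full assay without inhibitor and 100% = GST in place of GST-Vif; retest series ran down from 100 µM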
A1 inh: inhibitors of the anti-apoptotic protein A1, read as caspase activation | MEF A1-2A-BIM cells, Caspase-Glo 3/7 luminescence, 3 h; percent of clofoctol response, vehicle zero | caspase activation, % (test concentration not listed) | actives 0.066% (n = 330,000) | AID 2462;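 active = over half of replicate activation scores above 10%, or exactly half above 10 with the replicate mean above 10; inconclusive = replicate mean below 10 yet half the replicates above 10; inactive = over half of replicates below 10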;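 also: wells of about 30 µL received 50 nL stock; many hits fall short of the cut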
rRNA inh HTS OD600: further read-out of rRNA inh HTS, marked with its call; OD600 change, %; measured here: OD600 growth;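 optical density of the mix in the first replicate; 0 = DMSO median and -100 = no signal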
rRNA inh HTS RFP: recorded beside rRNA inh HTS, whose call it bears; RFP signal change, %; measured here: RFP humanized mutant strains;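 first replicate; 0 = DMSO median and -100 = no signal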
Numbers without * were called inactive; ? = inconclusive; . = no result given; & = joins results of further samples. These rows are one share of the data; count on the stated rates, not on these rows.

SMILES	Calb FLC	Beta cell apopt	RanGTP-Impb inh	AF4-AF9 inh	T cruzi repl	rRNA inh HTS	rRNA inh HTS OD600	rRNA inh HTS RFP	Vif A3G	A1 inh
CCOC(=O)c1cc(-c2ccccc2)n(CCC(=O)N2CCN(c3ccc(OC)cc3)CC2)c1C	5.6	9.0	-0.2	.	19.3	.	.	.	.	0.3
COc1ccc(C)cc1NC(=O)C1CCN(S(=O)(=O)c2ccc3c(c2)C(C)(C)C(=O)N3C)CC1	12.8	3.7	-3.4	-0.2	40.4	-1.2	7.9	2.7	.	-0.7
COc1ccc(/C=C/C(=O)c2ccc(OC)cc2OC)cc1	7.5	-0.6	5.7	10.8	-9.5	-18.9	-26.2	-10.1	-1.1%	-0.2
CC(c1n[nH]c(=S)n1-c1ccccc1)N1CCCCC1 (stereo unspecified)	-17.7	.	6.0	-5.2	1.6	8.5	6.9	-0.3	31.6%	-2.5
CCCOc1ccc(OCCCCNC(C)CC)cc1 (stereo unspecified)	-38.3	.	5.1	.	21.5	.	.	.	6.6%	0.2
COc1ccc(CC(=O)N/N=C(\C)CC(=O)Nc2ccc(N(C)C)cc2)cc1OC	-1.9	-1.7	0.0	6.9	2.2	0.3	7.0	1.6	.	-0.2
COc1cc(NC(=O)C2C3C=CC(C3)C2C(=O)O)c(OC)cc1Cl (stereo unspecified)	16.5	-1.1	-0.1	11.8	-2.5	3.7	15.2	-0.7	9.2%	0.3
COc1ccc(C(=O)Nc2ccc3c(c2)Cc2ccccc2-3)cc1	6.7	.	2.4	.	-6.8	.	.	.	-9.9%	-0.6
CCCc1ccc(Oc2cn[nH]c2-c2ccc(O)c(C)c2O)cc1	-9.9	.	1.3	.	45.1	.	.	.	26.6%	0.0
COc1cccc(C(=O)Nc2cccc(C(=O)NC3=NN(c4c(Cl)cc(Cl)cc4Cl)C(=O)C3)c2)c1	24.1	-5.3	1.6	.	-29.5	.	.	.	30.4%	-0.5
Cc1ccc(S(=O)(=O)N2CC=C(C(=O)NC3CCCC3)CC2)cc1	-1.0	-3.6	1.3	-5.8	-10.1	-1.0	4.4	-2.6	-5.8%	-0.2
O=C(COC(=O)c1ccc(S(=O)(=O)N2CCOCC2)cc1)NC1CCCC1	-6.0	-1.9	1.2	.	-10.1	.	.	.	-3.4%	-1.1
Cc1oc(-c2ccc3c(c2)OCCO3)cc1C(=O)NC(CCC(=O)O)C(=O)O (stereo unspecified)	2.4	-11.9	-0.2	.	-2.5	.	.	.	16.8%	0.3
CCn1cc(C(=O)NCC2CCCO2)c(=O)c2cc(S(=O)(=O)N3CCCCCC3)ccc21 (stereo unspecified)	12.3	8.9	2.9	.	7.8	-4.1	4.7	-4.0	-1.9%&-6.8%	-0.1
O=C(Cn1ccc(NC(=O)OCc2ccccc2)nc1=O)NCC1CCCO1 (stereo unspecified)	.	1.4	.	-0.4	.	-0.6	4.6	13.0	.	-0.2
Nc1c2c(nn1-c1ccc(F)cc1)CSC2	2.6	4.0	2.8	-0.5	-27.8	6.9	14.1	0.8	.	-0.3
COC(=O)CN(C#N)c1nc(NC(C)C)nc(NC(C)C)n1	-1.6	-2.5	-0.8	-0.9	5.6	0.7	5.7	1.6	-13.8%	0.2
O=S(=O)(Nc1ccccn1)c1ccc(Cl)cc1	-3.8	0.0	-0.8	.	-9.8	.	.	.	-4.8%	-1.0
Cc1cccc(C)c1N1CCN(c2n[nH]c(N)n2)CC1	5.4	.	-2.9	-0.2	5.5	0.8	4.4	-5.0	-0.4%	0.3
O=C(O)C1CCCN(S(=O)(=O)c2ccccc2[N+](=O)[O-])C1 (stereo unspecified)	5.3	-6.8	-1.6	-0.9	2.5	5.3	7.6	-2.1	.	0.2
CCCN1CCN(C(=O)c2oc3ccccc3c2NC(=O)COc2ccc(OC)cc2)CC1	-5.6	0.4	-2.1	-2.1	17.5	14.2	22.1	3.8	.	-0.7
COCC1=C(C(=O)OC(C)OC(=O)OC(C)C)N2C(=O)[C@@H](NC(=O)/C(=N\OC)c3csc(N)n3)[C@H]2SC1 (stereo partly specified)	.	0.7	0.1	-1.7	2.8	.	.	.	.	0.4
Cn1c2ccccc2n2c(=O)c(Cl)c(-c3ccccc3)c(C#N)c12	15.4	-0.1	2.2	.	33.4	.	.	.	.	-0.6
CC(C)Cc1nc2sc3c(c2c(=O)n1N)CC(C)(C)OC3	9.7	16.7	1.9	5.5	4.5	3.9	5.7	-3.4	1.1%	0.0
COc1ccc(C(=O)NNC(=O)CSc2nnc(C(C)C)n2C)cc1	5.7	-2.1	4.4	-0.9	-17.0	5.0	10.2	-2.9	.	-0.5
CC(C)(Oc1ccc(Cl)cc1)C(=O)N(Cc1ccccc1)c1ccccn1	-8.3	-8.0	2.3	-7.3	1.5	-33.9	-28.5	-5.8	.	-0.1
CS(=O)(=O)N(CC(=O)NCc1ccccc1)Cc1ccc(Cl)cc1	4.4	.	-5.6	.	5.6	.	.	.	16.4%	.
O=C(CCCc1ccccc1)NCc1ccccn1	2.0	-1.0	1.2	.	-16.2	.	.	.	.	0.7
COc1ccc(C(=O)Nc2cccnc2)cc1OC	-6.5	-1.4	0.4	.	4.1	.	.	.	.	-0.3
O=C(O)c1cn[nH]c1-n1cnnn1	-3.2	0.6	-4.2	.	-7.2	.	.	.	0.3%	0.5

Complete entries, quoted from the list. Screens in order: Calb FLC	Beta cell apopt	RanGTP-Impb inh	AF4-AF9 inh	T cruzi repl	rRNA inh HTS	rRNA inh HTS OD600	rRNA inh HTS RFP	Vif A3G	A1 inh
`O=C(CCCc1ccccc1)NCc1ccccn1` is listed as 2.0	-1.0	1.2	.	-16.2	.	.	.	.	0.7
`CC(C)Cc1nc2sc3c(c2c(=O)n1N)CC(C)(C)OC3` is listed as 9.7	16.7	1.9	5.5	4.5	3.9	5.7	-3.4	1.1%	0.0
`Cc1cccc(C)c1N1CCN(c2n[nH]c(N)n2)CC1` is listed as 5.4	.	-2.9	-0.2	5.5	0.8	4.4	-5.0	-0.4%	0.3

(cont.)
SMILES	Calb FLC	Beta cell apopt	RanGTP-Impb inh	AF4-AF9 inh	T cruzi repl	rRNA inh HTS	rRNA inh HTS OD600	rRNA inh HTS RFP	Vif A3G	A1 inh
COCCN1C(=O)CC(NNC(=O)c2ccc(S(=O)(=O)N3CCCC3)cc2)C1=O (stereo unspecified)	3.9	-4.5	2.9	-0.1	-8.9	-17.7	-32.7	-4.9	8.0%	0.1
CCN(CC)CCNC(=O)c1ccc(NC(=O)c2ccc3c(c2)CCC3)cc1	-0.9	-1.0	6.6	0.2	4.9	-7.7	-3.5	5.4	-7.5%	0.1
O=C(NCc1ccccc1)C(=O)NCC(c1ccco1)N1CCOCC1 (stereo unspecified)	-10.6	-4.7	-1.5	.	-19.0	.	.	.	18.0%	-1.0
Cc1cc(C(=O)NCc2ccc3c(c2)OCO3)c(C)o1	-0.5	7.5	-0.5	-2.6	-19.6	4.4	2.3	-2.1	2.8%	0.1
C/C(=N\NC(=O)c1ccccc1F)c1ccc2c(c1)Nc1ccccc1S2	-4.0	.	?	.	39.3	.	.	.	.	-0.1
CN(Cc1ccccc1F)C(=O)CCCNC(=O)c1ccc(Cl)cc1	-0.1	-0.4	-0.2	-2.4	-6.9	-4.7	-7.6	-1.9	-5.0%	0.6
COc1ccc(S(=O)(=O)NCC2CCCN(C(=O)c3cccs3)C2)cc1 (stereo unspecified)	3.3	1.6	-1.2	0.1	16.7	-3.7	4.3	3.8	-10.3%	0.3
Cc1ccc(S(=O)(=O)N(C)C)cc1NC(=O)CN1C(=O)NC(Cc2ccccc2)C1=O (stereo unspecified)	.	-2.0	-1.1	-0.4	2.0	1.1	2.5	-3.8	-0.9%	0.1
COc1ccccc1NC(=O)COc1ccc(C(=O)NCC2CCCO2)cc1OC (stereo unspecified)	.	0.9	.	0.5	.	-5.0	-14.8	2.7	.	0.5
COc1ccc(NC(=O)c2ccc(OC)cc2)cc1	-7.0	0.2	-2.6	.	-1.1	.	.	.	16.4%	-11.2
O=C(Cn1cnc2c(OCc3ccccc3)ncnc21)NCCN1CCOCC1	.	-7.8	.	-2.0	.	7.1	10.7	-1.5	-5.9%	0.5
C=CCN1C(=O)C2(OCCCO2)c2cccc(C)c21	-0.3	.	0.5	2.6	3.2	15.9	7.1	1.4	?	-0.5
CCOC(=O)c1cnc(SSc2ncc(C(=O)OCC)c(N)n2)nc1N	1.9	-4.8	-2.5	-5.3	-1.8	12.7	12.8	-2.6	-8.0%	0.8
O=c1[nH]c(-c2ccc(-c3cccc(Cl)c3)o2)nc2ccccc12	.	4.3	.	-3.1	.	12.4	19.4	19.2	.	-4.6
CC(C)CN1C(=O)c2ccc(NC(=O)C3CC3)cc2C1=O	0.5	-2.0	-2.7	-3.9	-2.2	10.1	15.4	2.4	2.3%	-1.2
Cc1ccc(Cl)cc1N(CC(=O)NCc1ccccc1)S(C)(=O)=O	-12.3	-0.3	-2.1	-0.7	-7.1	-2.5	2.8	-7.8	.	0.2
CCCCN=C1NC(=O)C(CC(=O)Nc2ccc(Cl)cc2)S1 (stereo unspecified)	11.3	-5.0	1.2	.	3.4	.	.	.	-5.9%	0.2
COc1ccc(S(=O)(=O)N2CCC(C(=O)N3CCc4ccccc4C3)CC2)cc1OC	-7.3	-11.3	0.8	.	24.6	.	.	.	2.9%	-0.9
COc1ccc([C@@H]2COc3c(ccc4c3C=CC(C)(C)O4)C2)c(OC)c1	22.3	9.5	-2.6	0.8	-16.6	1.1	8.2	-14.2	.	0.1
Cc1ccc(C(=O)NCc2nnc(SCC(=O)Nc3sc4c(c3C#N)CCCC4)n2C)cc1	11.4	-0.2	2.5	.	18.0	.	.	.	23.0%&-4.6%	0.7
Cc1ccc(-c2nc(SC(C)C(=O)N3CCCC3)n[nH]2)cc1 (stereo unspecified)	-0.8	-3.0	-6.0	-2.0	1.9	3.6	0.9	1.5	.	-0.4
CN(CC1CCOCC1)C(=O)CC1C(=O)NCCN1C/C=C/c1ccccc1 (stereo unspecified)	-6.8	8.7	1.2	-0.3	-10.6	11.0	13.3	-0.2	6.0%	0.1

Quoted at random: 2 entries already listed, in no set order.
SMILES	Calb FLC	Beta cell apopt	RanGTP-Impb inh	AF4-AF9 inh	T cruzi repl	rRNA inh HTS	rRNA inh HTS OD600	rRNA inh HTS RFP	Vif A3G	A1 inh
Cc1ccc(Cl)cc1N(CC(=O)NCc1ccccc1)S(C)(=O)=O	-12.3	-0.3	-2.1	-0.7	-7.1	-2.5	2.8	-7.8	.	0.2
CN(CC1CCOCC1)C(=O)CC1C(=O)NCCN1C/C=C/c1ccccc1 (stereo unspecified)	-6.8	8.7	1.2	-0.3	-10.6	11.0	13.3	-0.2	6.0%	0.1
